# High-throughput results from PubChem.
# T. gondii: Toxoplasma gondii ME49Luc growth in HeLa cells, luciferase, no IFN-y, primary screen (AID 1259421); T. gondii ME49Luc in HeLa, luciferase, 72 h, no IFN-y; stronger effect = lower value; reference of the scale and settings of repeat entries not given here; many of its hits are not listed in these tables; activity change, negative = inhibition, %; 6,400 compounds, 9.6% hits;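 active = activity change below -70%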;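 also: about 20 µM from a 10 mM stock diluted 500-fold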
# Numbers without * were called inactive; & = joins results of further samples; ! = not active in a repeat. This is a subset. The share of hits here may be higher or lower than overall.
canonical_smiles | T. gondii
CN1c2ccccc2C(NCCCCCCC(=O)O)c2ccc(Cl)cc2S1(=O)=O (centres undefined) | 8
CN1CCN(c2nc3ccccc3nc2Cl)CC1 | 1
CN(C(=O)Cc1ccccc1)[C@H](CN1CCCC1)c1ccccc1 | 9
CCN1CCN(C(=O)Cc2ccc(Nc3ncc(F)c(Nc4ccc(C(=O)Nc5ccccc5Cl)cc4)n3)cc2)CC1 | -83*
Cn1cc(C2=C(c3cn(C4CCN(Cc5ccccn5)CC4)c4ccccc34)C(=O)NC2=O)c2ccccc21 | 26
CC(C)[C@@]1(NC(=O)[C@@H]2C[C@@H]3c4cccc5[nH]cc(c45)C[C@H]3N(C)C2)O[C@@]2(O)[C@@H]3CCCN3C(=O)[C@H](Cc3ccccc3)N2C1=O | -26
COC1(C[S@@](=O)c2ccccc2)CCN(CCc2c[nH]c3ccc(F)cc23)CC1 | 22
C=C1[C@@H](C)[C@H]2[C@H](Cc3ccccc3)NC(=O)[C@]23OC(=O)/C=C\[C@H](O)CCC[C@@H](C)C/C=C/[C@H]3[C@@H]1O | -85*
O=C(O)Cc1cccnc1C(=O)O | 6
CN=C(NS(=O)(=O)c1ccc(Cl)cc1)N1C[C@H](c2ccccc2)C(c2ccc(Cl)cc2)=N1 | 38
CCN(CC)C(=O)N[C@H]1C=C2c3cccc4[nH]cc(c34)C[C@H]2N(C)C1 | 4
CCCN1CCC[C@H](c2cccc(O)c2)C1 | 11
N#Cc1nn(-c2c(Cl)cc(C(F)(F)F)cc2Cl)c(N)c1S(=O)C(F)(F)F (centres undefined) | 5&14
NCCc1ccc(O)cc1 | 11
OC1CC2CCCC(C1)N2Cc1ccccc1 (centres undefined) | 5
O=C(CCCN1CCC(n2c(=O)[nH]c3ccccc32)CC1)c1ccc(F)cc1 | -4
CCC1C(C)=NN=C(c2ccc(OC)c(OC)c2)c2cc(OC)c(OC)cc21 (centres undefined) | 7
CCCCOC(=O)c1ccccc1C(=O)OCCCC | -9&3
COc1ccc(/C=C2\CCCN=C2c2cccnc2)c(OC)c1 | -24
CCCCc1ccc(C(=O)O)nc1 | -13
NC(=O)OCCCc1ccccc1 | 5&0
CCOP(=S)(OCC)Oc1cc(C)nc(C(C)C)n1 | -3&11
CCC(C)C(=O)O[C@H]1[C@H](O)C2C(CN3CC(C)CCC3[C@@]2(C)O)C2C[C@]34O[C@]5(O)C(OC(=O)C(C)(O)CC)CC[C@@]3(C)C5C(OC(C)=O)[C@@H](OC(C)=O)C4[C@@]21O (some centres undefined) | 2
N#CC(C#N)=NNc1ccc(OC(F)(F)F)cc1 | 20
NCc1cc(=O)[nH]o1 | 4

# 4 entries from above, as labelled records:
CN1c2ccccc2C(NCCCCCCC(=O)O)c2ccc(Cl)cc2S1(=O)=O (centres undefined)
  T. gondii: 8
CN1CCN(c2nc3ccccc3nc2Cl)CC1
  T. gondii: 1
CN(C(=O)Cc1ccccc1)[C@H](CN1CCCC1)c1ccccc1
  T. gondii: 9
CCN1CCN(C(=O)Cc2ccc(Nc3ncc(F)c(Nc4ccc(C(=O)Nc5ccccc5Cl)cc4)n3)cc2)CC1
  T. gondii: -83*

# The list continues.
canonical_smiles | T. gondii
COC(=O)CN1CN(c2ccccc2)C2(CCN(Cc3ccc4ccccc4c3)CC2)C1=O | 13
CC(=O)Oc1ccc(Cl)c2cccnc12 | -3
CC1=CC[C@@H]2[C@@H](C1)c1c(O)cc(CC#CCCCNS(C)(=O)=O)cc1OC2(C)C | 18
C=CCN1CC[C@]23CCCC[C@H]2[C@H]1Cc1ccc(O)cc13 | 13
FC(F)(F)c1cccc(C2=CCN(CCc3ccc4ccccc4c3)CC2)c1 | 12&10
O=C(CS(=O)C(c1ccccc1)c1ccccc1)NO (centres undefined) | 3
Nc1nc(N)nc(NC2CC2)n1 | 8
C[C@@H]1CC[C@@]2(OC1)O[C@H]1C[C@H]3[C@@H]4CC=C5C[C@H](O[C@@H]6O[C@@H](CO)[C@@H](O[C@@H]7O[C@@H](C)[C@H](O)[C@@H](O)[C@@H]7O)[C@H](O)[C@H]6O[C@@H]6O[C@@H](C)[C@H](O)[C@@H](O)[C@H]6O)CC[C@]5(C)[C@@H]4CC[C@]3(C)[C@@H]1[C@H]2C | -18
NC(=O)CS(=O)C(c1ccccc1)c1ccccc1 (centres undefined) | -2
Cc1c(C(=O)c2cccc3ccccc23)c2cccc3c2n1[C@@H](CN1CCOCC1)CO3 | 47
O=C(N[C@H]1CN2CCC1CC2)c1cc2cccc(Cl)c2s1 | 26
CC(C)n1cnc2c(C(=O)N[C@H]3CN4CCC3CC4)cc(Cl)cc21 | 0&9
C[C@@H]1CN(C2CCC(C#N)(c3ccc(F)cc3)CC2)CC[C@]1(C(=O)O)c1ccccc1 (some centres undefined) | -8
CN(C)CCN(C)CCc1ccc(Cl)c(Cl)c1 | 7&10
C=CC[C@@]1(O)CC[C@H]2[C@@H]3CCC4=CC(=O)CCC4=C3C=C[C@@]21C | 10
CC1=NN=C(c2ccc(N)cc2)c2cc3c(cc2C1)OCO3 | 5
CCNC(=O)C[C@@H]1N=C(c2ccc(Cl)cc2)c2cc(OC)ccc2-n2c(C)nnc21 | 13
COc1ccc2c(c1)[C@]13CCCC[C@@H]1[C@H](C2)N(C)CC3 | 16
CN1CCC(c2c[nH]c3ccc(O)cc23)CC1 | 6&3
C/C1=C/C[C@@H](/C(C)=C/c2csc(C)n2)OC(=O)C[C@H](O)C(C)(C)C(=O)[C@H](C)[C@@H](O)[C@@H](C)CCC1 | -86*
CN(C(=O)Cc1ccc(Cl)c(Cl)c1)C(CN1CCCC1)c1cccc(OCC(=O)O)c1 (centres undefined) | 8
C[C@H](N)Cc1ccccc1 | 5
CN1C2CCC1CC(OC(c1ccccc1)c1ccc(Cl)cc1)C2 (centres undefined) | 42&-52
COC1(CS(=O)c2ccccc2)CCN(CCc2c[nH]c3ccc(F)cc23)CC1 (centres undefined) | 0
Cc1cc(SCc2sc(-c3ccc(C(F)(F)F)c(F)c3)nc2C)ccc1OCC(=O)O | 19

# The list continues.
canonical_smiles | T. gondii
O=C(O)CCC(CP(=O)(O)O)C(=O)O (centres undefined) | 22
CC(=O)NCCc1c[nH]c2ccccc12 | 5&8
C/C(=C\c1csc(C)n1)[C@H]1C[C@@H]2O[C@]2(C)CCC[C@H](C)[C@H](O)[C@@H](C)C(=O)C(C)(C)[C@H](O)CC(=O)O1 | -74*
O=[N+]([O-])c1ncc[nH]1 | 10
CN1CC[C@@H]2CN3CCc4cccc(c43)[C@@H]2C1 | 4
C[C@@H]1O[C@@H](O[C@@H]2C=C3CCC4C(CC[C@]5(C)[C@@H](c6ccc(=O)oc6)CC[C@]45O)[C@@]3(C)CC2)C(O)C(O)[C@H]1O (some centres undefined) | -86*
c1cncc(C2=NCCC2)c1 | 6
C/C=C(\C)C(=O)N[C@@H](c1ccccc1)[C@@H](O)C(=O)O[C@H]1C[C@@]2(O)[C@@H](OC(=O)c3ccccc3)[C@@H]3[C@]4(OC(C)=O)CO[C@@H]4C[C@H](O)[C@@]3(C)C(=O)[C@H](OC(C)=O)C(=C1C)C2(C)C | -82*
O=C1NCN(c2ccccc2)C12CCN(CC1COc3ccccc3O1)CC2 (centres undefined) | 4&-4
C/C(=C\C(N)C(=O)O)CP(=O)(O)O (centres undefined) | -5
O=C1C=C2C=C[C@@H]3C[C@@]2(O1)[C@H]1CCCCN31 | 32&45
O=C(O)c1ccc2[nH]cc(CCCCN3CC=C(c4ccccc4)CC3)c2c1 | 5&9
O=C(O)CCCO | 8
Cn1c2c(c3ccccc31)CCNCC2 | 9&9
CCN(C(C)=O)c1cccc(-c2ccnc3c(C#N)cnn23)c1 | 9
C[C@]12CC[C@H](O)C[C@H]1CC[C@@H]1[C@@H]2C[C@@H](O)[C@]2(C)[C@@H](C3=CC(=O)OC3)CC[C@]12O | -94*
CC(C)(C)NCC(O)c1ccc(O)cc1Cl (centres undefined) | -2
CCCCC/C=C\C/C=C\C/C=C\C/C=C\CCCC(=O)Nc1ccc(O)cc1 | -78*
COc1cc(OC)c2c(c1)O[C@H](c1ccc(OC)c(OC)c1)[C@@H](O)C2 | -4
COC(=O)C(c1ccccc1)C1CCCCN1 (centres undefined) | 0&17
CN1CC(CNC(=O)OCc2ccccc2)CC2c3cccc4c3c(cn4C)CC21 (centres undefined) | 8&9
CN1CCc2cc3c(cc2C1[C@@H]1OC(=O)c2c1ccc1c2OCO1)OCO3 (some centres undefined) | 8
CN1CCc2cc(O)cc3c2[C@H]1Cc1ccc(O)c(O)c1-3 | -14
O=C(Cc1ccc(Cl)c(Cl)c1)N1CCCCC1CN1CCCC1 (centres undefined) | -29&2
Clc1cccc(SC2CCNCC2)n1 | 19

# Copied from the results shown (27 entries):
canonical_smiles | T. gondii
CN1c2ccccc2C(NCCCCCCC(=O)O)c2ccc(Cl)cc2S1(=O)=O (centres undefined) | 8
CN1CCN(c2nc3ccccc3nc2Cl)CC1 | 1
CN(C(=O)Cc1ccccc1)[C@H](CN1CCCC1)c1ccccc1 | 9
CCN1CCN(C(=O)Cc2ccc(Nc3ncc(F)c(Nc4ccc(C(=O)Nc5ccccc5Cl)cc4)n3)cc2)CC1 | -83*
Cn1cc(C2=C(c3cn(C4CCN(Cc5ccccn5)CC4)c4ccccc34)C(=O)NC2=O)c2ccccc21 | 26
CC(C)[C@@]1(NC(=O)[C@@H]2C[C@@H]3c4cccc5[nH]cc(c45)C[C@H]3N(C)C2)O[C@@]2(O)[C@@H]3CCCN3C(=O)[C@H](Cc3ccccc3)N2C1=O | -26
COC1(C[S@@](=O)c2ccccc2)CCN(CCc2c[nH]c3ccc(F)cc23)CC1 | 22
C=C1[C@@H](C)[C@H]2[C@H](Cc3ccccc3)NC(=O)[C@]23OC(=O)/C=C\[C@H](O)CCC[C@@H](C)C/C=C/[C@H]3[C@@H]1O | -85*
O=C(O)Cc1cccnc1C(=O)O | 6
CN=C(NS(=O)(=O)c1ccc(Cl)cc1)N1C[C@H](c2ccccc2)C(c2ccc(Cl)cc2)=N1 | 38
CCN(CC)C(=O)N[C@H]1C=C2c3cccc4[nH]cc(c34)C[C@H]2N(C)C1 | 4
CCCN1CCC[C@H](c2cccc(O)c2)C1 | 11
N#Cc1nn(-c2c(Cl)cc(C(F)(F)F)cc2Cl)c(N)c1S(=O)C(F)(F)F (centres undefined) | 5&14
NCCc1ccc(O)cc1 | 11
OC1CC2CCCC(C1)N2Cc1ccccc1 (centres undefined) | 5
O=C(CCCN1CCC(n2c(=O)[nH]c3ccccc32)CC1)c1ccc(F)cc1 | -4
CCC1C(C)=NN=C(c2ccc(OC)c(OC)c2)c2cc(OC)c(OC)cc21 (centres undefined) | 7
CCCCOC(=O)c1ccccc1C(=O)OCCCC | -9&3
COc1ccc(/C=C2\CCCN=C2c2cccnc2)c(OC)c1 | -24
CCCCc1ccc(C(=O)O)nc1 | -13
NC(=O)OCCCc1ccccc1 | 5&0
CCOP(=S)(OCC)Oc1cc(C)nc(C(C)C)n1 | -3&11
CCC(C)C(=O)O[C@H]1[C@H](O)C2C(CN3CC(C)CCC3[C@@]2(C)O)C2C[C@]34O[C@]5(O)C(OC(=O)C(C)(O)CC)CC[C@@]3(C)C5C(OC(C)=O)[C@@H](OC(C)=O)C4[C@@]21O (some centres undefined) | 2
N#CC(C#N)=NNc1ccc(OC(F)(F)F)cc1 | 20
NCc1cc(=O)[nH]o1 | 4
COC(=O)CN1CN(c2ccccc2)C2(CCN(Cc3ccc4ccccc4c3)CC2)C1=O | 13
CC(=O)Oc1ccc(Cl)c2cccnc12 | -3

# Other records follow.
canonical_smiles | T. gondii
O=c1cccc2n1CC1CNC[C@H]2C1 | 10&0&11
CCCCCCN1CCN(c2cccc(Cl)c2)CC1 | 10
CCCN(CCC)[C@@H]1CCc2c(OC)cccc2[C@@H]1C | 17&9
Cn1c(COP(=O)(NCCBr)NCCBr)cnc1[N+](=O)[O-] | -40
C/C(=C/C=C/[C@@H](C)C(=O)O)[C@H]1CN[C@H](C(=O)O)[C@H]1CC(=O)O | 5
CCCCCCCCCOc1ccc2[nH]cc(CCN)c2c1 | 8
CCC[C@@H]1CC2=CC(=O)CC[C@]2(C)[C@H]2CC[C@@]3(C)[C@@H](CC[C@@]3(O)CCC(=O)O)[C@H]12 | 18
CC(C)CC(NC(=O)C(Cc1ccccc1)NC(=O)CNC(=O)[C@H](C)NC(=O)C(N)Cc1ccc(O)cc1)C(=O)N[C@H](CCCN=C(N)N)C(=O)O (some centres undefined) | 11
CCCCC/C=C\C/C=C\C/C=C\C/C=C\CCCC(=O)NCCO | 35
CC(C)(O)[C@H]1O[C@H]2CC[C@@]3(C)[C@@](O)(CC[C@H]4Cc5c([nH]c6ccccc56)[C@@]43C)C2=CC1=O | 28
CCN1CC2(COC(=O)c3ccccc3N3C(=O)CC(C)C3=O)CCC(OC)C34C5CC6C(OC)CC(O)(C5C6OC)C(O)(C(OC)C23)C14 (centres undefined) | 5
COc1cccc2c1C(=O)c1c(O)c3c(c(O)c1C2=O)C[C@@](O)(C(=O)CO)C[C@@H]3O[C@H]1C[C@H](N2CCO[C@H](OC)C2)[C@H](O)[C@H](C)O1 | -77*
c1ccc2c(c1)[I+]c1ccccc1-2 | -89*!
N#Cc1ccccc1-c1cc(-c2ccccn2)cn(-c2ccccc2)c1=O | 4
